TRPML1 blocker = human mucolipin-1 channel inhibition. activity change, negative = inhibition, % (concentration not given with the values). Q9GZU1. 390,000 compounds, 0.02% hits. TRPML1-inducible cells, Ca2+ dye fluorescence, FDSS; active compounds read low; inhibition of EC80 agonist-evoked calcium signal; in the data active means activity change below about -50%; inconclusive means about -30% to -50%; inactive means above about -30%;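 note: stimulus is agonist 54-4 at its EC80 concentration; % is set by controls: 0 for no effect and ±100 for the full control effect; the text of the record puts the active cut at -80%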
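TRPML1-DL cells, Tet-induced overnight (~16 h, 37 °C) at 1,500 cells/well, were loaded with Ca8 no-wash dye plus quencher for 45-90 min at room temperature. Compounds were pinned during FDSS kinetic reading; agonist 54-4 at EC80 (4 uM final) then added.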
Six1-Eya2 inh = blocks human Six1 binding to Eya2; AID 651725; Q15475+O00167; activity change, % (concentration not given with the values); 360,000 compounds, 0.56% hits; AlphaScreen GST-Six1/His-Eya2 binding, biochemical; active compounds read low; control for the full effect not named in the record; in the data active = activity change below about -65%; inconclusive = about -30% to -65%; inactive = above about -30%; note: % is set by controls: 0 for no effect and ±100 for the full control effect
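AlphaScreen luminescence read after one hour at 37 °C in darkness. Pin-transferred compounds met GST-Six1 and His-Eya2 protein (5X stock 250 nM/500 nM) plus glutathione donor and Ni-chelate acceptor beads (5X, 50 ug/mL).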
TRPML1 agonist = agonists of human TRPML1 channel. Q9GZU1. TRPML1-expressing cells, Ca2+ dye fluorescence, FDSS; host cell line not named in the record; reference of the full effect not given here. activation, % (no concentration beside the values). 410,000 compounds, 0.12% hits; in the data active = activation above about 50%; inconclusive = about 30% to 50%; inactive = below about 30%; note: 0% is about no effect; the text of the record puts the active cut at 80%
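Tet-induced TRPML1-DL cells, 1,500 per well, cultured overnight, were loaded with a no-wash Ca2+ dye for 45–90 min. Calcium fluorescence was recorded on the FDSS for 110 s after compound addition, before the EC80 agonist (4 uM 54-4) was added.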
D2 PAM = positive allosteric modulators of human D2 dopamine receptor; DiscoveRx D2 beta-arrestin cells, luminescence, 90 min; 100% = 57 uM dopamine signal; AID 624464; potentiation, % (no concentration beside the values); 360,000 compounds, 0.23% hits; active = potentiation of 50% or more; inconclusive = 30% to 50%; inactive = 30% or less;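 note: compound concentration not given in the record; tested on top of an EC20 dose of dopamine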
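PathHunter beta-arrestin assay in DiscoveRx D2 cells. Compounds were added with an EC20 of dopamine (50 nM final) for 90 min at 37 deg C. Luminescence was read 1 h after detection reagent, with 57 uM dopamine as the EC100 control.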
CtBP-E1A blk = blocks the CtBP interaction with E1A; AID 651724; activity change, % (concentration not given with the values); AlphaScreen GST-E1A/His-CtBP binding, 1536-well; active compounds read low; control for the full effect not named in the record; 340,000 compounds, 0.49% hits; in the data active means activity change below about -65%; inconclusive means about -30% to -65%; inactive means above about -30%; note: % is set by controls: 0 for no effect and ±100 for the full control effect
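Steps: dispense buffer (Tris pH 8.0, NaCl 300 mM, TCEP 1 mM, BSA, Tween 20); add 5X protein mix (GST-E1A, His-CtBP, 125 nM each); pin 23 nL compound; 2 h at 37 °C, dark; add 5X beads (50 ug/mL); 1 h; read.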
TRPV1 potentiator = human TRPV1 potentiation | 320,000 compounds, 0.02% hits | potentiation, % at 8.33 µM | AID 540277 | Q8NER1 | TRPV1-expressing cells, Fluo-8 calcium influx, capsaicin EC20 potentiation; host cell line not named in the record; control for the full effect not named in the record; active means potentiation above 80%; inconclusive means 30% to 80%; inactive means below 30%; note: 0% is about no effect
Target sequence (Q8NER1 whole entry, looked up): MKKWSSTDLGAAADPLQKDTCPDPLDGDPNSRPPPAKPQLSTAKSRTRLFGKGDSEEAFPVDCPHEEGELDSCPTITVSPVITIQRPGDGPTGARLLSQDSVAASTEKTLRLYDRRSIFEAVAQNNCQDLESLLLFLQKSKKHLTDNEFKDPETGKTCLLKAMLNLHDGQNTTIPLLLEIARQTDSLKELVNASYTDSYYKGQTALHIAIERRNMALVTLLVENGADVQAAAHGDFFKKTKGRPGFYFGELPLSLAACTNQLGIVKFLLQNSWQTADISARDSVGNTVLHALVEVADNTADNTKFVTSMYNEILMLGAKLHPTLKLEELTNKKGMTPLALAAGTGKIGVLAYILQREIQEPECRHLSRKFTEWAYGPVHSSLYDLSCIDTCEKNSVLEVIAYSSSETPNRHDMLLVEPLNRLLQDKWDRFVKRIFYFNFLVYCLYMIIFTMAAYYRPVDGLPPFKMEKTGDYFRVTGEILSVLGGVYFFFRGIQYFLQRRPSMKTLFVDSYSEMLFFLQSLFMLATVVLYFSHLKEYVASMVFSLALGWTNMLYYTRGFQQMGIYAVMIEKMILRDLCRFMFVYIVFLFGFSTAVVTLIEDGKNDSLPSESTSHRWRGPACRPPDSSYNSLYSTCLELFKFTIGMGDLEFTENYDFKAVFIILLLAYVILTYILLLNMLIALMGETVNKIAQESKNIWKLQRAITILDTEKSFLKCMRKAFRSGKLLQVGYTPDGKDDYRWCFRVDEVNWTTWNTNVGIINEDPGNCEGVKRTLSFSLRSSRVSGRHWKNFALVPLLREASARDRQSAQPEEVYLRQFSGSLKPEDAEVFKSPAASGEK
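TRPV1-expressing cells were cultured overnight at 35.5C and loaded with Fluo-8 calcium dye for 40 to 90 min at room temperature. After a 10 s baseline, compound was added and calcium influx was read kinetically for 3 min (ex 480/em 520 nm).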
* marks the source's active call; other numbers are inactive results; ? = inconclusive; . = no result given; & = joins results of further samples. Compounds were not picked by outcome. Share with any hit: about 0.95%.

SMILES	TRPML1 blocker	Six1-Eya2 inh	TRPML1 agonist	D2 PAM	CtBP-E1A blk	TRPV1 potentiator
Nc1c(Br)cc(Br)c(N2CCCC2=O)c1Br	13	-4	-0.7	9	0	11
CCC(=O)N1c2ccccc2-c2nnc(SC)nc2OC1c1ccc(OC)c(OC)c1 (centres undefined)	50	4	0.8	-2	-27	.
COCCNc1nnnc2c1sc1nc(N3CCOCC3)c3c(c12)CC(C)(C)OC3	-12	-15	-0.8	-11	-9	?
COc1ccc(Cl)cc1Nc1nc(N)c2ccccc2n1	-10	-1	-0.5	-17	3	29
CCOC(=O)C1=C(CP(=O)(c2ccccc2)c2ccccc2)NC(=O)NC1c1ccc(Cl)cc1 (centres undefined)	-1	2	-0.9	15	8	1
Cc1c(C(=O)N/N=C/c2ccc(O)c(Br)c2)sc(N)c1C#N	-10	?	2.7	5	-65*	11
COc1ccc(C(C)=O)cc1COC(=O)c1cccnc1SC	20	4	3.4	6	-16	6
Cn1c(=O)c2c(nc(Oc3ccccc3)n2C)n(C)c1=O	1	-7	0.6	-6	-6	-1&-3
C#CCOCCOCCOCCNc1nc(N2CCN(C(=O)C([C@@H](C)O)n3cc([C@@H](N)CCCCN)nn3)CC2)nc(N2CCN(C(=O)[C@H](CO)n3cc([C@@H](N)C(C)C)nn3)CC2)n1 (some centres undefined)	-6	-7	-0.3	-3	-24	.
Cc1nc(-c2c(C(=O)NNC(=O)Nc3c(C)cccc3C)noc2C)cs1	-16	13	-0.5	-9	5	5
O=C(/C(=C(\[O-])c1ccccc1)[n+]1ccc2ccccc2c1)c1ccc([N+](=O)[O-])cc1	13	7	-0.2	-9	-5	-22
O=C(COC(=O)c1ccc(O)cc1)NCCc1c[nH]c2ccccc12	-9	1	0.0	-23	18	-3
O=C(NCc1ccccn1)c1ccc(NS(=O)(=O)c2cccc([N+](=O)[O-])c2)cc1	5	-2	-0.6	-1	-8	4
Cc1nnc(SCC(=O)NC(C)(C)C)n1C1CCCCC1	59	9	-0.2	-1	10	-2
Cc1cccc(C(=O)N2CCN(c3ccc([N+](=O)[O-])c(N4CCOCC4)c3)CC2)c1	-7	?	-0.5	-3	-18	-16
CCCOc1ncnc2c1sc1nc3c(cc12)COC(C)(C)C3	-1	1	-0.3	-4	12	-8
Cc1ccc(S(=O)(=O)NCCC(=O)Nc2ccc(S(=O)(=O)NC(C)C)cc2)cc1	-5	8	-1.5	-1	0	19
CCOC(=O)CCSc1nc(C)cc(C(F)(F)F)c1C#N	-13	20	0.1	-15	9	-16
COc1ccc(OCCNC(=O)CSc2ccc(C(F)(F)F)cc2[N+](=O)[O-])cc1	-11	-10	0.6	-3	-26	11
Cc1ccc(-c2cc(C(=O)N/N=C/c3cccnc3)c3ccccc3n2)cc1C	14	-23	3.3	-6	-11	.
CC(Oc1cc2oc(=O)cc(-c3ccccc3)c2cc1Cl)C(=O)NCC1CCC(C(=O)O)CC1 (centres undefined)	.	-4	.	-13	-7	7
CC(=O)c1cccc(NC(=O)c2cc(-c3ccco3)on2)c1	19	-2	-0.2	-17	-1	10
O=C(NC(=O)c1ccccc1)C1=C(N2CCCC2)COC1=O	35	4	-0.3	-7	-1	-6
O=C(COC(=O)CCC(=O)c1ccc(F)cc1)Nc1cccc(S(=O)(=O)N2CCOCC2)c1	27	-3	0.0	-1	-1	-10
COCCNC(=O)C(OC(=O)c1cccs1)c1ccccc1 (centres undefined)	7	0	0.4	-6	7	1
CCN(CC)C(=O)Cn1cnc2c1c(=O)n(C)c(=O)n2C	-10	6	0.6	-9	-2	-2
NNC(=O)[C@H](Cc1ccccc1)NC(=O)NCCc1ccccc1	1	0	4.4	-8	-1	18
CC(C)(C)n1nnnc1C(c1ccccc1)N1CCc2ccccc2C1 (centres undefined)	9	11	2.2	-2	4	-8
COc1ccc(CN2CCN(CCc3ccccc3)C(CCO)C2)c(O)c1 (centres undefined)	-18	-9	0.0	-11	9	-7
COc1ccccc1N(CC(=O)N1CCN(c2ccc(F)cc2)CC1)S(=O)(=O)c1ccc(C)cc1	-2	-3	-0.3	-8	0	10
COC(=O)c1cc(NS(=O)(=O)c2ccc(N3CCCCCC3)c([N+](=O)[O-])c2)cc(C(=O)OC)c1	-11	-18	-0.1	-16	-18	-2
COc1cc2c(C(=O)N3CCN(C4CCCCC4)CC3)cn(CC(C)C)c(=O)c2cc1OC	-1	6	-0.4	-6	5	1
CCc1ccccc1N(CC(=O)NC1CCCCC1)C(=O)CCC(=O)Nc1ccccn1	7	-5	1.0	-3	5	29
CN(c1ccccc1)c1ccc(/C=C(\CCC(=O)O)c2nc3ccccc3s2)cc1[N+](=O)[O-]	-6	?	-0.1	-15	3	3
Cc1c(C(=O)OCc2nc3scc(-c4ccccc4)c3c(=O)[nH]2)cccc1[N+](=O)[O-]	8	-18	-0.4	-3	-11	28
O=C(CCN1C(=O)S/C(=C\c2ccc(Cl)cc2)C1=O)Nc1ccc(C(=O)O)cc1	-9	8	2.5	-16	10	5
N#CCC(CNc1ncc(C(F)(F)F)cc1Cl)OC(=O)c1cccc([N+](=O)[O-])c1 (centres undefined)	8	-14	0.1	25	-18	-9
Cc1cc([N+](=O)[O-])nn1CC(=O)N/N=C/c1ccccc1F	15	-3	-0.5	-3	-4	-3
c1cncc(-c2csc(-c3cccnc3)n2)c1	3	-1	3.1	-7	-3	12
Fc1ccc(-c2cc3nc(-c4ccccc4)cc(N4CCN(CCN5CCOCC5)CC4)n3n2)cc1	13	5	3.6	-12	5	-13

Ordered by SMILES length (high to low): 15 of the compounds above
SMILES	TRPML1 blocker	Six1-Eya2 inh	TRPML1 agonist	D2 PAM	CtBP-E1A blk	TRPV1 potentiator
COC(=O)c1cc(NS(=O)(=O)c2ccc(N3CCCCCC3)c([N+](=O)[O-])c2)cc(C(=O)OC)c1	-11	-18	-0.1	-16	-18	-2
CN(c1ccccc1)c1ccc(/C=C(\CCC(=O)O)c2nc3ccccc3s2)cc1[N+](=O)[O-]	-6	?	-0.1	-15	3	3
COc1ccccc1N(CC(=O)N1CCN(c2ccc(F)cc2)CC1)S(=O)(=O)c1ccc(C)cc1	-2	-3	-0.3	-8	0	10
CC(Oc1cc2oc(=O)cc(-c3ccccc3)c2cc1Cl)C(=O)NCC1CCC(C(=O)O)CC1 (centres undefined)	.	-4	.	-13	-7	7
Fc1ccc(-c2cc3nc(-c4ccccc4)cc(N4CCN(CCN5CCOCC5)CC4)n3n2)cc1	13	5	3.6	-12	5	-13
N#CCC(CNc1ncc(C(F)(F)F)cc1Cl)OC(=O)c1cccc([N+](=O)[O-])c1 (centres undefined)	8	-14	0.1	25	-18	-9
O=C(CCN1C(=O)S/C(=C\c2ccc(Cl)cc2)C1=O)Nc1ccc(C(=O)O)cc1	-9	8	2.5	-16	10	5
CCc1ccccc1N(CC(=O)NC1CCCCC1)C(=O)CCC(=O)Nc1ccccn1	7	-5	1.0	-3	5	29
Cc1cc([N+](=O)[O-])nn1CC(=O)N/N=C/c1ccccc1F	15	-3	-0.5	-3	-4	-3
COc1ccc(CN2CCN(CCc3ccccc3)C(CCO)C2)c(O)c1 (centres undefined)	-18	-9	0.0	-11	9	-7
NNC(=O)[C@H](Cc1ccccc1)NC(=O)NCCc1ccccc1	1	0	4.4	-8	-1	18
CC(=O)c1cccc(NC(=O)c2cc(-c3ccco3)on2)c1	19	-2	-0.2	-17	-1	10
O=C(NC(=O)c1ccccc1)C1=C(N2CCCC2)COC1=O	35	4	-0.3	-7	-1	-6
COCCNC(=O)C(OC(=O)c1cccs1)c1ccccc1 (centres undefined)	7	0	0.4	-6	7	1
c1cncc(-c2csc(-c3cccnc3)n2)c1	3	-1	3.1	-7	-3	12

(cont.)
SMILES	TRPML1 blocker	Six1-Eya2 inh	TRPML1 agonist	D2 PAM	CtBP-E1A blk	TRPV1 potentiator
O=C(CC(NC(=O)c1ccccc1)c1ccccc1)NCc1ccccc1 (centres undefined)	-26	-5	2.3	7	6	.
CC(O)(c1cccc(F)c1)c1nc(-c2cncnc2)cs1 (centres undefined)	.	4	-0.5	-3	8	.
NN=C1c2ccccc2-c2ccc(N)cc21	11	-24	0.2	-20	-18	.
CCC(C(=O)NC(C)(C)C)N(C(=O)Cn1nnc(-c2ccccc2F)n1)c1cccc2c1CCCC2 (centres undefined)	14	5	0.4	2	5	-14
COc1cccc(OC)c1-c1cnc(NC(C)=O)cn1	.	2	-0.3	-9	7	.
CCOc1ccc(C2C(C(=O)c3ccc(C)o3)=C(O)C(=O)N2c2cc(C)on2)cc1OC (centres undefined)	-7	-2	0.2	-19	2	-3
COc1ccc(N2CCN(C(=O)COc3ccc(Cl)cc3Cl)CC2)cc1	-10	-23	0.7	-25	-20	-1
C[N+](C)(C)CCOC(=O)CCC(=O)OCC[N+](C)(C)C	-7	3	0.0	1	0	.
CCN(CC(=O)Nc1ccccc1OC)C(=O)COc1ccc2ccccc2c1	-17	-7	-0.1	-7	-2	8
O=C(O)CN1C(=O)NC2NC(=O)NC21 (centres undefined)	7	6	0.4	-6	-3	8
CCOP(=O)(OCC)C(NC(=O)Nc1ccc(Cl)cc1)C(N)=O (centres undefined)	2	4	-0.3	16	15	19
CNC(=O)C[C@H]1C(=O)N(Cc2ccccc2)C[C@@H]1Cc1ccccc1	7	4	0.6	-2	-5	.
Cc1nnc(SCC(=O)N(C(C)C)C(C)C)nc1C	13	3	-0.9	5	3	-2
CC(=O)N1N=C(c2ccco2)CC1c1ccc(Br)cc1 (centres undefined)	22	0	-0.1	-4	10	-8
CC(=O)c1cccc(N=Cc2c(O)ccc3ccccc23)c1	1	-10	0.2	?	3	3
COC(=O)Nc1c(-c2ccccc2)nc2ccc(C)cn12	-18	0	-0.6	-8	4	7
C[C@@H]1CN([C@@H](C)CO)C(=O)c2cc(NC(=O)CCN3CCOCC3)ccc2O[C@@H]1CN(C)C(=O)Nc1ccccc1	14	4	-0.2	-31	-1	.
COC(=O)c1ccc(C(NC(=O)c2cccnc2)NC(=O)c2cccnc2)cc1	9	4	-1.0	0	9	15
COc1ccc(/C(C)=N/Nc2nccnc2Cl)cc1	-6	-14	-0.3	-5	-21	-14
CCN(CC)CCNC(=O)C1c2ccccc2C(=O)N(CCOC)C1c1ccc(F)cc1 (centres undefined)	-18	5	0.5	-37	-3	-3
Cc1ccc2c(c1)N(C)/C(=C/c1cccc[n+]1C)S2	7	-14	0.5	-5	-12	-16
O=C(N/N=C/c1cccnc1)c1sc2ccccc2c1Cl	42	-7	6.4	-14	-9	-13
O=C1c2cccc3cccc(c23)C(=O)N1CCCSc1ncn[nH]1	-7	0	1.3	5	0	-4
Cc1ccc(NC(=O)N/C=C/c2ccc(Cl)cc2)cc1	27	9	-0.3	9	-2	.
CCCCn1c(NC(=O)c2ccco2)c(S(=O)(=O)c2ccc(C)cc2)c2nc3ccccc3nc21	9	-1	0.0	8	-8	8
CCCC1=C(C(=O)OCC)C(c2cccs2)n2ncnc2N1 (centres undefined)	-8	2	1.2	3	.	-11

Bioassay records from PubChem BioAssay.
